PMP22 txn prim: Cell-based coincidence reporter assay to measure PMP22 gene transcription in S16 Pmp22-F2sN cells - Primary screen; Potency, µM (highest dose often 57.5 µM), inactives show top-dose activity change, negative = inhibition, usual class: inhibitors; actives 2% (n = 43,000); S16 Pmp22-F2sN Schwann cells (luciferase reporters placed in the Pmp22 gene), FLuc/NLuc coincidence luminescence, 24 h; active = clear falling dose curves in both reporters; inconclusive = both reporters move, but less clearly or upward; inactive = either reporter flat; the % is the NLuc reporter signal; further: on the % scale 0 is the no-effect control and ±100 the full control effect; some results filed as inactive show a strong effect at the top dose
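Reporter cells (S16 Pmp22-F2sN, 500–1,000 per well) exposed to compounds for 24 h, 37C, 5% CO2; lysis with FLuc read after 10 min, then Stop&Glo and NLuc read after 10 min.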
HTT prom inh: Primary qHTS for Identification of Small Molecule Inhibitors of Huntingtin Promoter Activity; HEK293 HTT promoter firefly luciferase reporter (activity 0% = vehicle and -100% = no light), 24 h; Potency, µM (titrated, usually from 57.5 µM), inactives show top-dose activity change, negative = inhibition, most hits filed as inhibitors; actives 0.93% (n = 48,000); AID 1508623, 2021; active means well fitted inhibition curve with a large enough effect; inconclusive means small, poorly fitted or top-dose-only effect; inactive means no such curve, though single readings can be large or run the other way; further: nearly all actives have a fitted effect of over 50% in size
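Firefly luciferase signal from promoter-reporter HEK293 cells was scaled between vehicle (0%) and zero RLU (-100%). Compounds were tested at final concentrations of up to 57.5 uM over 24 h at 37 degrees C. PTC124 at 50 uM final served as control inhibitor.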
The depositor's hits bear a star; ? = inconclusive; nt = no result given; & = joins results of further samples; [ ] = dose if it differs, or a comment. Potency means the concentration at half of the fitted maximal effect.

Molecule	PMP22 txn prim	HTT prom inh
O=c1n(CCCN2CCN(c3cccc(Cl)c3)CC2)nc2ccccn12	nt	-7%&7%
COCCCNC(=O)NC(CCC(C)C)c1c(-n2cccc2)sc2c1CCN(C)C2 (stereo not drawn)	?	-17%
COc1ccc(NC(=O)COc2ccc(-c3nn(C)c(=O)c4ccccc34)cc2)cc1	-6%	?
CCOc1ccc(NS(=O)(=O)c2ccc3[nH]cc(C(=O)N4CCCCCC4)c(=O)c3c2)cc1	15%	-2%
COc1cc(OC)c(N(C)C(=O)c2sc3nc4n(c(=O)c3c2C)CCCCC4)cc1Cl	3%	9%
CN(C(=O)Cn1c(=O)n(CCCS(=O)(=O)C2CCCCC2)c(=O)c2ccccc21)c1ccccc1	-6%	-14%
CCOC(=O)c1c(C)[nH]c(C)c1S(=O)(=O)N1CCCC(C(=O)Nc2cccc(CC)c2)C1 (stereo not drawn)	-23%	?
COc1cccc(-n2c(=O)c3sc4ccccc4c3n(CC(=O)Nc3ccccc3C)c2=O)c1	-5%	-13%
COc1ccccc1N1CCN(C(=O)CSc2nc(-c3ccc(C(C)C)cc3)no2)CC1	?	?
O=C(NCCC1=CCCCC1)c1ccc2c(=O)n3nc(Nc4ccccc4)sc3nc2c1	?	-15%
CCOc1ccccc1CN(CCc1ccc2c(c1)OCO2)Cc1cc(OC)c(OC)cc1OC	1%	-11%
Cc1cc(C)c2c(=O)cc(C(=O)Nc3ccc(S(=O)(=O)N(C)Cc4ccccc4)cc3)oc2c1	?	-16%
Cn1cc(CN(C(=O)Nc2ccc(Cl)c(Cl)c2)C2CCCCC2)c2ccccc21	-85%	9%
COc1cc(C2Oc3nc(SC)nnc3-c3ccccc3N2C(C)=O)cc(Cl)c1OC (stereo not drawn)	-67%	-17%[11.5 µM]
COc1ccccc1NC(=O)c1cc(S(=O)(=O)NCCc2ccccc2)ccc1F	?	?
COc1ccc(C2=NC3(CCCCC3)N(CC(=O)Nc3ccc(C(C)C)cc3)C2=O)cc1	?	?
COc1ccccc1N1CCN(Cc2nnc(-c3ccccc3C)o2)CC1	-19%	-9%
O=C(CSc1c2c(nc3ccc(Cl)cc13)CCCC2)NCc1ccccc1Cl	11µM*	-6%
Cc1ccc(CCNC(=O)c2nnc(Cc3cccc(F)c3)o2)cc1	-14%	-17%
COc1ccc(S(=O)(=O)NCCc2sc3nc(-c4ccc(C)cc4)nn3c2C)cc1C	?	?
O=c1c2sc3ccccc3c2n(Cc2ccc(F)cc2)c(=O)n1Cc1ccccc1	3%	-8%
Cc1cc(N2CCN(c3ccc(F)cc3)CC2)n2nc(-c3ccc(Cl)cc3)nc2n1	9%	-14%
Cn1nnnc1SCCNCc1ccc(OCc2ccccc2)cc1	-48%	2%
CCc1ccc(NC(=O)c2cnc3c(-c4ccccc4)c(C)nn3c2C)cc1	8%	?
COc1ccc(NC(=O)C(c2ccccc2)N(C)C(=O)/C=C\c2ccc3c(c2)OCO3)cc1 (stereo not drawn)	56%	-25%
Cc1ccc(C)c(CN2CCCN(CC(=O)Nc3ccc(C)c(C)c3)S2(=O)=O)c1	?	-21%
CCCCSCCCNC(=O)c1c[nH]c2ccc(S(=O)(=O)Nc3cccc(OC)c3)cc2c1=O	-8%	?
COc1ccc(Cl)cc1NC(=O)c1cnc(N2CCCCC2)c2ccccc12	?	-12%
CCc1ccc(-n2nnc(-c3nc(-c4cccs4)no3)c2N)cc1	3%	83%[activator]
COc1ccc(N(C)C(=O)C2CCN(S(=O)(=O)c3cc(Br)cc4c3N(C(C)=O)CC4)CC2)cc1	?	0%
Cc1ccc(C(=O)Nc2ccc(C(=O)OCc3cc(=O)n4ccsc4n3)cc2)cc1	-3%	31%[activator]
CCOc1ccccc1CNC(=O)c1cnc2sc(N3CCCCCC3)nn2c1=O	?	-16%
CN1CCN(C(=O)c2cnn(-c3ccc(F)cc3F)c2C2CCN(C(=O)OC(C)(C)C)CC2)CC1	-1%	1%
CCOc1ccc(NCc2cccn2-c2nnc(N3CCC(C(=O)NCc4cccc(OC)c4)CC3)s2)cc1	-98%	?
CC(=O)Oc1ccc(C2(c3ccc(OC(C)=O)cc3)C(=O)Nc3ccccc32)cc1	nt	-14%
COc1cccc(Cn2c(=O)n(-c3cc(C)cc(C)c3)c(=O)c3oc4ccccc4c32)c1	-50%	-14%
Cc1cccc(NC(=O)N2CCN3CCCCC3C2)c1C (stereo not drawn)	-9%	-8%
Cc1nnc(NC(=O)CSCc2cc(=O)c3ccc(C)c(C)c3[nH]2)s1	25%	-3%
O=C(c1cccc([N+](=O)[O-])c1)N1CCN(CCc2ccncc2)CC1	0%	0%
Cn1cc(S(=O)(=O)N2CCCC2)cc1C(=O)N1CCN(c2cccc(Cl)c2)CC1	-32%	-24%

The final 6 entries of the part before come first, to join the parts.
Molecule	PMP22 txn prim	HTT prom inh
CC(=O)Oc1ccc(C2(c3ccc(OC(C)=O)cc3)C(=O)Nc3ccccc32)cc1	nt	-14%
COc1cccc(Cn2c(=O)n(-c3cc(C)cc(C)c3)c(=O)c3oc4ccccc4c32)c1	-50%	-14%
Cc1cccc(NC(=O)N2CCN3CCCCC3C2)c1C (stereo not drawn)	-9%	-8%
Cc1nnc(NC(=O)CSCc2cc(=O)c3ccc(C)c(C)c3[nH]2)s1	25%	-3%
O=C(c1cccc([N+](=O)[O-])c1)N1CCN(CCc2ccncc2)CC1	0%	0%
Cn1cc(S(=O)(=O)N2CCCC2)cc1C(=O)N1CCN(c2cccc(Cl)c2)CC1	-32%	-24%
COc1ccc(CCNC(=O)CCCn2c(=O)c3ccccc3n(Cc3cccc(Cl)c3)c2=O)cc1OC	?	-30%
CCC1Oc2ccc(C)cc2N(CC(=O)NCc2ccc(F)cc2)C1=O (stereo not drawn)	?	-18%
Cc1cc(N2CCCCC2)nc2ccc(NC(=O)CCC(=O)N3CCN(c4cccc(Cl)c4)CC3)cc12	?	?
COCCNC(=O)CCC(=O)NNc1nc2ccccc2c2nc(-c3ccccc3)nn12	-38%	6%
COC(=O)c1c(-c2ccc(Cl)cc2)noc1N1CCN(c2ccccc2OC)CC1	8.9µM*	?
CC(C)c1ccc(S(=O)(=O)c2nnn3c2nc(N2CCOCC2)c2sccc23)cc1	?	-6%
CCN(Cc1ccccc1)c1ncnc2c1cnn2-c1ccc(F)cc1	-3%	28%
Cn1c(=O)c2c(nc(NCc3ccccc3)n2Cc2ccc(Cl)c(Cl)c2)n(C)c1=O	14µM*	?
COc1ccccc1NC(=O)c1oc2ccccc2c1NC(=O)C(C)C	-33%	-12%
CNC(=O)c1c(NC(=O)Cc2coc3ccc(C)cc23)sc2c1CCCC2	-15%	?
Cc1ccc(OCC(=O)Nc2cc3nn(-c4ccccc4)nc3cc2C)cc1	-4%	44%[activator]
Cc1cccc(S(=O)(=O)c2cn(C)c3cc(N4CCN(c5ccccc5)CC4)c(F)cc3c2=O)c1	21%	8%
COc1ccc(NC(=O)C2CCCN(S(=O)(=O)c3c(C)[nH]c(=O)[nH]c3=O)C2)c(OC)c1 (stereo not drawn)	-34%	23%
CCOc1ccc(-n2c(-c3ccccc3)c(C)n3c4c(=O)n(C)c(=O)n(C)c4nc23)cc1	-18%	14%
CC1(C(=O)NC2CCCCC2)Cc2ccccc2C(=O)N1Cc1ccc(F)cc1 (stereo not drawn)	-11%	-28%
O=C(Nc1ccc2c(c1)N(C1CCCC1)C(=O)c1ccccc1S2)c1cccc(F)c1	-17%	-18%
COc1ccc(Cn2ccnc2SCC(=O)Nc2ccc3c(c2)OCCO3)cc1	-7%	11%
Cc1c2cnn(-c3ccccc3)c(=O)c2c(C)n1CC(=O)NCc1ccccc1	-27%	-18%
COc1cccc(NC(=O)CSc2nc3ccccc3nc2N2CCOCC2)c1	0%	-29%
N#Cc1c(NC(=O)c2cccc3ccccc23)sc2c1CCCC2	nt	-30%
Cc1cccc(-c2nc(S(=O)(=O)c3ccccc3)c(N3CCN(c4ccccc4)CC3)o2)c1	4%	2%
COc1ccc(-c2nnc(SCC(=O)N3CCC(C)CC3)o2)cc1	-16%	-3%
O=C(COc1ccccc1)NCCc1csc(-c2ccc(Cl)cc2)n1	?	?
CCc1ccc(NC(=O)Cn2c(=O)n(Cc3nc(C)no3)c(=O)c3cc4c(cc32)OCO4)cc1	14%	-2%
Cn1nnc2c(C(N)=O)ncn2c1=O	nt	-2%&1%
COc1ccc(C)cc1NC(=O)c1oc2ccc(S(=O)(=O)N3CCCCC3)cc2c1C	9%	-8%
O=C1Cc2cc(S(=O)(=O)Nc3ccc(OC(F)(F)F)cc3)cc3c2N1CCC3	16%	?
COc1cccc(CNC(=O)c2ccc(NC(=O)N3CC(C)Sc4ccccc43)cc2)c1 (stereo not drawn)	-14%	-22%
Cc1cc(Br)ccc1NC(=O)COc1cc(=O)n(C)c2ccccc12	?	-18%
COc1ccc(OCC(=O)Nc2ccc3nn(-c4ccc(OC)cc4)nc3c2)cc1	-10%	-7%
Cc1ccc2c(c1)-c1c(c(C(=O)NCCc3ccccc3)nn1C)CS2	?	?
CC(C)N(Cc1ccccc1)C(=O)c1cc2ccc3cccnc3c2[nH]1	?	?
CC1CCc2nn(CC(=O)Nc3ccccc3Cl)cc2C1 (stereo not drawn)	0%	3%
COc1cc2c(cc1OC)n(CC(=O)c1cccc(Cl)c1)c(=O)n1nc(CCn3nc(C)cc3C)nc21	?	-19%
O=C(Nc1ccc2nc(SCC(=O)N3CCCC3)sc2c1)c1cccc(Br)c1	-30%	-18%
O=C(CSc1nnc(-c2ccncc2)n1-c1ccccc1)Nc1ccc(F)cc1	?	-14%
Clc1ccccc1-c1nc(Nc2ccccc2)nc2ccc(Br)cc12	?	-8%
Cc1cc(C)cc(-n2ccn(CC(=O)Nc3ccccc3F)c(=O)c2=O)c1	-2%	-3%
Cc1csc2nc(COc3cccc(NC(=O)c4ccccc4F)c3)cc(=O)n12	?	0%
CC(NC(=O)c1ccccc1NC(=O)c1nsc2ccccc12)c1ccccc1 (stereo not drawn)	-6%	13%

Quoted at random: 4 entries already listed, in no set order.
Molecule	PMP22 txn prim	HTT prom inh
Cc1cccc(-c2nc(S(=O)(=O)c3ccccc3)c(N3CCN(c4ccccc4)CC3)o2)c1	4%	2%
CC(C)N(Cc1ccccc1)C(=O)c1cc2ccc3cccnc3c2[nH]1	?	?
Cc1cc(Br)ccc1NC(=O)COc1cc(=O)n(C)c2ccccc12	?	-18%
O=C1Cc2cc(S(=O)(=O)Nc3ccc(OC(F)(F)F)cc3)cc3c2N1CCC3	16%	?

Going on with the list.
Molecule	PMP22 txn prim	HTT prom inh
COc1ccccc1N=C1SC(C(=O)Nc2ccccc2OC)CC(=O)N1C (stereo not drawn)	7%	-10%
CC(C)c1nn2c(=O)cc(COC(=O)c3ccccc3NC(=O)c3cccc(Cl)c3)nc2s1	?	-15%
Cc1ccc(-n2ncc(C(=O)N3CCN(c4cccc(C)c4)C(C)C3)c2C2CCN(C(=O)OC(C)(C)C)CC2)cc1 (stereo not drawn)	?	-4%
COc1ccccc1CCNC(=O)c1ccc2c(c1)c(C)c(C)n2C	-25%	9%
CCCOc1ccc(C2c3c(-c4ccccc4O)n[nH]c3C(=O)N2Cc2cccnc2)cc1 (stereo not drawn)	?	?
Cc1ccc(Cc2nc3ccccc3nc2SCC(=O)NCCc2ccccc2)cc1	?	-8%
COc1cccc(C(=O)c2cn(CC(=O)NCCc3ccccc3)c3nc(C)ccc3c2=O)c1	4%	-3%
CCOc1ccc(CCNC(=O)c2ccc3c(c2)N(Cc2ccccc2F)C(=O)c2ccccc2S3=O)cc1OCC (stereo not drawn)	3%	-10%
CCCSc1oc(-c2cccs2)nc1S(=O)(=O)c1ccc(C)cc1	-11%	?
COc1ccc(C(=O)N2CCN(C(=O)COc3ccc(C)cc3)CC2)cc1OC	-39%	8%
O=C(NCCc1csc(-c2ccc(F)cc2)n1)c1ccco1	-83%	-12%
COc1ccc(Nc2cc(-c3cnc(N)nc3)nc(N3CCOCC3)n2)cn1	nt	?
Cc1ccc(O)c(NC(=O)CCSc2nc(-c3ccco3)cc(C(F)(F)F)n2)c1	-8%	?

Source: PubChem BioAssay (National Center for Advancing Translational Sciences (NCATS))
